Screening data (PubChem BioAssay)
Mtb bLac sens: beta-lactam sensitization of Mtb H37Rv, H37Rv; inhibition, % at 25 µM; AID 434955, 2010; hit rate 0.27% among 330,000; M. tuberculosis H37Rv growth with meropenem, percent inhibition; hits of this screen are not shown here;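 active = about 74% or more and at least 40 points above the plate without the antibiotic, then above 30% in a dose series; inconclusive = first-round hits that could not be retested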;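 also: growth measured after seven days incubation then overnight dye step; 0% = bacteria only wells and 100% = bacteria with antibiotic; twin plates without the antibiotic show which effects depend on it; some results filed as inactive read as strong as hits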
Active calls of the source: *; u = inconclusive.

SMILES	Mtb bLac sens
O=C(CCC(=O)c1ccccc1)NCc1cccc(C(F)(F)F)c1	-7
CC1CCN(C(=O)C(C)NCc2ccc(F)cc2)CC1 (stereo not given)	-5
CCC(CO)Oc1cc(NC(=O)c2cccc(OC)c2)c2ncn(C(C)C)c2c1 (stereo not given)	-8
NS(=O)(=O)c1ccc(CCNc2nc(C(F)(F)F)nc3ccccc23)cc1	7
CN(C1CCCCC1)S(=O)(=O)c1ccc(SCC(=O)C(C)(C)C)nc1	-4
COc1ccc2c3n([n+]([O-])c2c1)CCN=C3c1ccc(C)cc1	17
O=C(COC(=O)C12CC3CC(CC(O)(C3)C1)C2)Nc1ccc(Br)cc1F	-7
COC(=O)C1=C(C)NC(=S)NC1c1ccc(OCC(=O)N2CCCCC2)c(OC)c1 (stereo not given)	-4
CN(C)Cc1c(O)ccc2occ(C(=O)c3ccc(F)cc3)c12	-12
N#Cc1ccccc1OCC(=O)OCC(=O)c1ccc[nH]1	-3
CC(OC(=O)c1cccc(S(=O)(=O)N2CCOCC2)c1)C(=O)NC1CCCCC1C (stereo not given)	-2
Cc1cc(C(=O)OCC(=O)NCc2cccs2)ccc1[N+](=O)[O-]	2
COc1ccc(CCNC(=O)c2c(Cl)ccc(Cl)c2OC)cc1OC	-7
CS(=O)(=O)c1ccc(Cl)c(NC(=O)CCN2C(=O)NC3(CCCC3)C2=O)c1	-1
NC(=O)C1CCN(c2nc(-c3cccc(N)c3)cs2)CC1	5
Cc1ccccc1N1CCN(C2CCCN(C(=O)CN3CCCC3=O)C2)CC1 (stereo not given)	u
COc1cc(/C=C/C(=O)OCC(=O)N2CCC(C)CC2)ccc1OCC#N	-6
COc1ccc(S(=O)(=O)Nc2cccc3c2O[C@H](CN(C)C)[C@@H](C)CN([C@H](C)CO)C3=O)cc1	-3
Cc1cccc(NC(=O)CN2CCN(C(=O)C(C)Oc3ccc(C#N)cc3)CC2)c1C (stereo not given)	-2
COc1ccc(C2=CC(=O)C[C@H](c3ccc(F)cc3)C2)cc1F	54
CCc1ccc(NC(=O)CNC(=O)Cn2ccc3ccccc3c2=O)cc1	-1
O=c1c2ccccc2oc2cc(-c3ccc4cc[nH]c4c3)ccc12	-2
Cc1cc(Cl)ccc1OC(C)C(=O)OCC(=O)c1ccc[nH]1 (stereo not given)	66
COc1cc(CC(=O)NCCCc2ccccc2)cc(OC)c1OC	-6
O=C(CCC(=O)N1CCN(c2ccccn2)CC1)c1cccs1	-6
O=C(CN1CCN(c2ccccc2O)CC1)Nc1ccccc1C(=O)NCCc1ccccc1	92
COc1cc(C)c(NC(=O)COc2cccc3c2OC(C)(C)C3)cc1OC	-2
COc1ccc(C(=O)NCc2ccco2)cc1S(=O)(=O)NC1CC1	-1
COCCCN(C(=O)C1CCC1)c1c(N)n(Cc2ccccc2)c(=O)[nH]c1=O	3
Cc1c(NS(=O)(=O)c2ccc(C(=O)NCc3ccc(F)cc3)cc2)c(=O)n(-c2ccccc2)n1C	-9

Taken from above.
In Mtb bLac sens, `O=C(CN1CCN(c2ccccc2O)CC1)Nc1ccccc1C(=O)NCCc1ccccc1` has the entry 92
In Mtb bLac sens, `O=C(CCC(=O)N1CCN(c2ccccn2)CC1)c1cccs1` has the entry -6
In Mtb bLac sens, `CCc1ccc(NC(=O)CNC(=O)Cn2ccc3ccccc3c2=O)cc1` has the entry -1
In Mtb bLac sens, `COc1cc(C)c(NC(=O)COc2cccc3c2OC(C)(C)C3)cc1OC` has the entry -2
In Mtb bLac sens, `COc1cc(CC(=O)NCCCc2ccccc2)cc(OC)c1OC` has the entry -6

Entries listed so far containing a cyano group (three):
SMILES	Mtb bLac sens
N#Cc1ccccc1OCC(=O)OCC(=O)c1ccc[nH]1	-3
COc1cc(/C=C/C(=O)OCC(=O)N2CCC(C)CC2)ccc1OCC#N	-6
Cc1cccc(NC(=O)CN2CCN(C(=O)C(C)Oc3ccc(C#N)cc3)CC2)c1C (stereo not given)	-2

(continued)
SMILES	Mtb bLac sens
Cc1cc(CN(C)C(=O)c2cc(COc3ccc(C)c(C)c3)on2)on1	-3
C=CC[C@H](CC(=O)N(CCO)Cc1ccccc1)C(=O)NC[C@H](OC(=O)[C@@H](CC=C)Cc1ccc(F)cc1)c1ccccc1	0
Cc1cc(C)n2nc(SCC(=O)N3CCC(C)CC3)nc2n1	-8
CCOc1ccc(NC(=O)COC(=O)CCN2C(=O)C3CC=CCC3C2=O)cc1OCC (stereo not given)	1
Cc1ccccc1-n1nnnc1SCC(=O)NC1CC1	-5
CN(C)S(=O)(=O)c1ccc2c(c1)C(=O)c1cc(S(=O)(=O)N(C)C)ccc1CC2	-1
C=CC[C@@H](CC(=O)OC(C)(C)C)C(=O)OC[C@@H]1CCCN1C(=O)[C@@H](CC=C)CC(=O)N[C@H](CO)Cc1ccccc1	3
CC(C)COC(=O)N1CCN(S(=O)(=O)c2ccc3c(c2)CCC3)CC1	7
COc1ccc(OC)c(S(=O)(=O)n2cnc3ccccc32)c1	-12
COc1ccc([C@H]2CC(=O)C=C(/C=C/c3ccc(C(F)(F)F)cc3)C2)cc1	0
O=C(COC(=O)c1c[nH]c2ccccc12)NC1CCCC1	2
CCCn1c(N)c(C(=O)CSc2nnc(C3CC3)n2-c2ccccc2)c(=O)[nH]c1=O	-4
O=C(CSc1nnc(NC2CCCCC2)s1)N1CCOCC1	-3
N#CC1(CCCN2CCCCC2)c2ccccc2CCc2ccccc21	1
Cc1ccc(NC(=O)CSc2nnc(-c3cc(C)on3)o2)cc1	9
CC(C)(C)OC(=O)C[C@@H]1C/C=C\C[C@@H](CC(=O)N[C@H](CO)Cc2ccccc2)C(=O)N2CCC[C@H]2COC1=O	6
COc1ccc([C@H]2CC(=O)C=C(c3ccc(Oc4ccccc4)cc3)C2)cc1OC	81
CCc1ccc(NC(=O)CCNC(=O)N2C[C@H]3C[C@@H](C2)c2cccc(=O)n2C3)cc1	-6
COC(=O)C1=C(c2ccc(C(C)=O)cc2)C[C@@H]2CC[C@H]1N2C(=O)N1CCC(O)(c2ccc(Cl)cc2)CC1	1
O=C(COC(=O)Cc1cccc(C(F)(F)F)c1)NC(=O)NC1CCCC1	-2
COc1ccc(C(=O)NC(=O)COC(=O)C2CC2C)cc1 (stereo not given)	-7
Clc1nssc1=Nc1nncs1	7
O=C(C[C@H]1C/C=C\C[C@H](Cc2ccc(F)cc2)C(=O)O[C@@H](c2ccccc2)CNC1=O)N[C@@H](CO)Cc1ccccc1	0
O=C1C=C(c2cccc(Cl)c2)C[C@@H](c2ccc(F)cc2)C1	1
NC(=O)c1c(NC(=O)c2ccc(N3C(=O)CCC3=O)cc2)sc2c1CCCC2	-1
NC(=O)C1CCN(c2oc(-c3cccs3)nc2S(=O)(=O)c2ccc(Br)cc2)CC1	-3
COc1ccc(Cl)cc1NS(=O)(=O)c1cccc(C(=O)NCC(C)(C)N2CCOCC2)c1	2
COc1ccccc1CNC(=O)COC(=O)c1ccc(N2CCCC2=O)cc1	25
Cc1cccc(C)c1NC(=O)CSc1ncnc2[nH]ncc12	9
CC(OC(=O)c1nc(Cl)ccc1Cl)C(=O)NC1CCCCC1C (stereo not given)	-3
CSc1nc(C(=O)N2CCCC(N3CCN(c4ccccc4C)CC3)C2)cs1 (stereo not given)	-1
C=CC[C@H](CC(=O)NCCO)C(=O)N[C@@H](C)COC(=O)[C@@H](CC=C)CC(=O)OC(C)(C)C	-2
Cc1ccccc1NC(=O)Cc1nc(COC(=O)c2ccc(NC(N)=O)cc2)cs1	1
O=C(COC(=O)/C=C/c1cccc(Cl)c1Cl)Nc1ccc2[nH]c(=O)[nH]c2c1	10
CCOc1ncccc1C(=O)Nc1ccc2c(c1)OCCO2	7
CCN1CCN(c2ccc(S(=O)(=O)N3CCOCC3)cc2NC(=O)CC(C)C)CC1	1
O=C(COC(=O)COc1cccc(Br)c1)NCc1ccc2c(c1)OCO2	-5
Cc1cc(C)cc(OCC(=O)OCC(=O)NC2CCCC2)c1	37
O=c1c2ccccc2nc2n1CCc1c-2[nH]c2ccccc12	-1
CCOC(=O)[C@H]1[C@H]2COc3ccc(Cl)cc3[C@@H]2N2C(=O)CN(Cc3ccc(F)cc3)C(=O)[C@@]12C	4
O=C(COC(=O)c1cccc([N+](=O)[O-])c1)NNC(=O)c1cccs1	-7
O=C(NC1CCCCC1)c1ccc(-c2ccccc2F)o1	79
CC(=O)c1c(C)[nH]c(C(=O)COC(=O)c2cc(C)oc2C)c1C	-1
O=C(O)c1ccc(NC(=O)N2C[C@H]3C[C@@H](C2)c2cccc(=O)n2C3)cc1	-5
COc1ccc(CCN(C)C(=O)C2CC(=O)N(Cc3ccc(C)cc3)C2)cc1OC (stereo not given)	-3
COc1ccc(CC(=O)OCC(=O)NC2CC2)cc1	-3
Cc1ccc(NC(=O)c2ccc(OCc3c(C)noc3C)cc2)c(C)c1	0
O=C(COC(=O)c1cc(Cl)nc(Cl)c1)NCCc1ccc(F)cc1	6
COc1ccc(/C=C/C(=O)OCC(=O)NC2CCCCCC2)cc1OC	4
COc1ccc(NC(=O)CSc2ccc3c(c2)OCCO3)cc1	6
Carrying on:
SMILES	Mtb bLac sens
CN1CCC(N(C)C(=O)c2ccc(Cl)c(S(=O)(=O)N3CCCCC3)c2)CC1	-3
COc1ccc(CC(=O)OCC(=O)NCc2ccc(F)cc2)cc1	-2
COc1ccc(NC(=O)CC2SC(N3CCOCC3)=NC2=O)cc1OC (stereo not given)	4
CCc1cccc(CC)c1NC(=O)C1CCN(C(=O)c2ccco2)CC1	-5
CCOC(=O)c1c(NC(=O)COC(=O)CC(NC(C)=O)c2ccccc2)sc(C(=O)NC)c1C (stereo not given)	3
COC(=O)C1=C(c2c(C)noc2C)C[C@@H]2CC[C@H]1N2C(=O)N1CCOCC1	-1
O=C(CNc1cc([N+](=O)[O-])ccc1NCCO)Nc1cccc(S(=O)(=O)N2CCCCC2)c1	3
O=C(CSc1n[nH]c(-c2ccccc2F)n1)Nc1cc(F)ccc1F	14
O=C(NCCCCNCCCNC(=O)c1ccccc1)c1ccccc1	-3
O=C(CCNS(=O)(=O)c1ccccc1F)OCc1ccccc1Cl	4

3 entries from above, with bars between the fields:
Compound | Mtb bLac sens
CCOC(=O)c1c(NC(=O)COC(=O)CC(NC(C)=O)c2ccccc2)sc(C(=O)NC)c1C (stereo not given) | 3
COC(=O)C1=C(c2c(C)noc2C)C[C@@H]2CC[C@H]1N2C(=O)N1CCOCC1 | -1
O=C(CNc1cc([N+](=O)[O-])ccc1NCCO)Nc1cccc(S(=O)(=O)N2CCCCC2)c1 | 3

(list continues)
SMILES	Mtb bLac sens
Cc1cccc(NC(=O)c2nc[nH]c2C(=O)N(C)Cc2ccccc2)c1	36
O=C(OCC#CCSc1nnc(-c2cccc3ccccc23)o1)c1ccc(Br)cc1	4
COc1cc(OC)c(OC)cc1CNC(=O)c1ccc(S(=O)(=O)N2CC(C)OC(C)C2)cc1 (stereo not given)	-5
Nn1c(SCC(=O)Nc2ccc(N3CCOCC3)cc2)nnc1C1CC1	1
COc1ccc(S(=O)(=O)N2CCCCC2)cc1NC(=O)c1[nH]c(C)c(C(C)=O)c1C	2
O=S(=O)(c1ccccc1)N1CCN(Cc2c(O)ccc3ccccc23)CC1	0
COc1cc(C(=O)Nc2ncccc2C)ccc1OCC(=O)N1CCOCC1	0
CCCN(Cc1nnc(-c2cccs2)o1)C(=O)c1cccc(S(=O)(=O)N2CCOCC2)c1	-12
CC1CCN(C(=O)C2COc3ccccc3O2)CC1 (stereo not given)	5
O=C(NC(Cc1ccccc1)C(=O)O)/C(=C/c1ccc(Cl)cc1)NC(=O)c1ccco1 (stereo not given)	-2
NC(=O)C1CCN(CC(=O)Nc2cc(S(=O)(=O)N3CCOCC3)ccc2N2CCCC2)CC1	-5
COc1cccc(Oc2ccc(S(=O)(=O)N3CCOCC3)cc2[N+](=O)[O-])c1	0
CCN(Cc1ccc2c(c1)OCO2)C(=O)CSc1ncnc2sccc12	-11
CC(Sc1nnc(N)s1)C(=O)Nc1ccc2c(c1)OCCO2 (stereo not given)	-8
COC(=O)C1=C(c2ccc(F)cc2F)C[C@@H]2CC[C@H]1N2C(=O)NCc1ccc(C(F)(F)F)cc1	-1
O=C(OCC(=O)N1CCN(C(=O)c2ccco2)CC1)c1c(Cl)cccc1Cl	1
c1cnc2cc(-c3ccsc3)ncc2c1	-4
CCN(C[C@H]1N[C@@](C)(C(=O)OC)[C@H]2C(=O)N(C)C(=O)[C@@H]12)C(=O)COc1ccccc1	3
COc1ccc(-c2sc3cc(OC)c(OC)cc3c2C#CCO)cc1	1
NC(=O)C1CCN(C(=O)CCC(=O)c2cccs2)CC1	-6
CCOc1ccc(OCCSc2ccc(S(=O)(=O)N3CCN(C)CC3)cn2)cc1	97
Cc1ccc(CN2CCN(/N=C/c3ccc(O)c(O)c3)CC2)cc1	-20
COc1ccc(-c2sc3ccccc3c2-c2ccc(OCCN(C)C)cc2)cc1	100
C=CCn1c(C)nnc1SCC(=O)Nc1ccc2c(c1)OCCO2	-3
C#CCOCCOCCOCCNc1nc(N2CCN(C(=O)C([C@@H](C)O)n3cc([C@@H](N)CCCCN)nn3)CC2)nc(N2CCN(C(=O)[C@H](CCCN=C(N)N)n3cc(C(N)[C@@H](C)CC)nn3)CC2)n1 (stereo not given in full)	37
CC(C)C(NC(=O)c1ccc(F)cc1)C(=O)N1CCOCC1 (stereo not given)	0
COc1ccc(CCC(=O)N2CCCc3ccccc32)cc1	5

The list is partial; count on the stated rates, not on these rows.
